PKD1 kinase inh: inhibitors of human PKD1 kinase, biochemical, fluorescence polarization | PKD1 kinase fluorescence polarization assay | inhibition, %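 (about 10 µM by stock and volumes)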 | 0.056% of 200,000 active | AID 797, 2007;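 active = inhibition of 50% or more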;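 also: controls were vehicle for no effect and a reference inhibitor for full effect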
HSV augment: enhancers of HSV replication in host cells, fold increase, host cell viability | 0.005% of 220,000 active | AID 1956, 2009 | HSV replication augmentation in cells | maximum fold increase;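 active = peak rise of 1.5-fold or more in the series; inconclusive = self-fluorescent or not available for retest; tested in PC3 cells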;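 also: first round at 10 µM; read as green reporter fluorescence; hits show the peak of a series up to 25 µM; 1 = signal of infected wells without compound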
RGS16-Gao HTS: modulators of RGS16 binding to Galphao, primary screen, biochemical, human proteins, multiplexed bead flow cytometry | Regulator of G-protein signaling 16 (Homo sapiens) + Guanine nucleotide-binding protein … | bead-based flow cytometry RGS16-Galphao binding, fluorescence; actives lie on both sides | binding response (% of control), % at 10 µM | 0.38% of 220,000 active | AID 1441, 2008;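 active = below 25% or above 175%, edge rows of some plates excepted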;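 also: Galphao activated by GDP with aluminum fluoride before binding; 100% = wells without compound and 0% = beads without RGS; some results beyond the cut were filed as inactive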
Target sequence (O15492 whole entry, looked up): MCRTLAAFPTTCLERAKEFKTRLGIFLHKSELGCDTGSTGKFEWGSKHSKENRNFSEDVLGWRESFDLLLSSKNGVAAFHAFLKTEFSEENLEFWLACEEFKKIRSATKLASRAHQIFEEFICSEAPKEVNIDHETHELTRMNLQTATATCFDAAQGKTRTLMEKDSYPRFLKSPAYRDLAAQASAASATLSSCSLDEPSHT
Target sequence (P09471 whole entry, looked up): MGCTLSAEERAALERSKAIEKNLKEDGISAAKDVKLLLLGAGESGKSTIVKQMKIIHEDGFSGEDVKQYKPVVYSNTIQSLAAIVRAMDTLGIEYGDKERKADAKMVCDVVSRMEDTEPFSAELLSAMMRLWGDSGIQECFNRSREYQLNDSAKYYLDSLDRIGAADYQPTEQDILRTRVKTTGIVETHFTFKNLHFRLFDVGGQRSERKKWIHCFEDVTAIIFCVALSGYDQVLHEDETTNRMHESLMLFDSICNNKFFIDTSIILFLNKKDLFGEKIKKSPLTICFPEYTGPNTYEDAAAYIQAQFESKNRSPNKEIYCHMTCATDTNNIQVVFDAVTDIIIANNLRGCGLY
GALR2 ag: GALR2 receptor agonists, primary screen, cell-based. Galanin receptor type 2 (Homo sapiens), O43603. GALR2-expressing cells, agonist activation read-out. activation, %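 (tested at 5 µM)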. 0.48% of 140,000 active;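 active = above mean plus 3 SD of all compounds, about 5% in these data, not always enough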;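 also: 0% = vehicle buffer wells and 100% = reference agonist at full effect; tested in CHO reporter cells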
Target sequence (O43603 whole entry, looked up): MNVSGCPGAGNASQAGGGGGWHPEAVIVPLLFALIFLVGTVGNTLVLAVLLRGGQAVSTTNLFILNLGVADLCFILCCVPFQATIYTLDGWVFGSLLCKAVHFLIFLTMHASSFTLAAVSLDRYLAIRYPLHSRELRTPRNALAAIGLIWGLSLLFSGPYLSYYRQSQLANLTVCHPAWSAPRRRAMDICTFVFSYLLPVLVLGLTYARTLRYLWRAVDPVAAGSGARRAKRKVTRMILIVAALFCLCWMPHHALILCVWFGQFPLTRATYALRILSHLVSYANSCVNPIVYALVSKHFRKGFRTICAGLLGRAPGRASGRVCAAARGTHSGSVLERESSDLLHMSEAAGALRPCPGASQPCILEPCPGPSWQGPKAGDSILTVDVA
Insulin prom inh: inhibitors of insulin promoter-driven GFP, primary screen, imaging, TRM-6 cells (human fetal islet line), eGFP reporter, cell count; reporter expression induced with tamoxifen; 0.9% of 130,000 active; inhibition, % at 2 µM;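 active = inhibition above the mean plus 3 SD, with well images judged a real hit on visual review, cut at about 60% in these data, passing the limit was not always enough; inconclusive = inhibition over the cutoff but images rejected on review; inactive = inhibition not above the cutoff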
Insulin prom inh cell count: recorded beside Insulin prom inh, whose call it bears; normalized cell count, %; measured here: cell count, toxicity; reference of the scale not given here;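 cells exposed to compound for 48 h; stained nuclei by imaging scaled within each plate; lower means fewer cells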
HSV augment primary fold: further read-out of HSV augment, marked with its call; fold increase; compound at 10 µM; measured here: primary screen fold increase 10 uM; tested in PC3 cells;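 GFP signal in the first replicate; 1 = infected wells without compound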
* = called active by the depositor; i = inactive; ? = inconclusive; · = no result given. An unsorted share of the library; any-hit rate near 1.1%.

SMILES	PKD1 kinase inh	HSV augment	HSV augment primary fold	RGS16-Gao HTS	GALR2 ag	Insulin prom inh	Insulin prom inh cell count
CCOC(=O)/C(C#N)=C/c1c(Oc2cccc(C)c2)nc2c(C)cccn2c1=O	-1	i	1	75	0.5	-14	121
COc1cccc(-c2nc(CS(=O)(=O)CC(=O)NCCCN3CCc4ccccc4C3)c(C)o2)c1	6	i	1	113	-2.0	-92	101
Cc1cc(C)c2c(NC(=S)NC(=O)c3ccccc3)nn(C)c2n1	0	i	0.9	101	·	·	·
COc1ccc(N2C(=O)CC(N3CCCC4CCCCC43)C2=O)cc1 (stereo unspecified)	-8	i	1.1	104	-2.4	-6	98
O=C(Nc1ncccc1Cl)c1ccc2c(c1)OCCO2	-1	i	1	136	·	36	133
CC1CN(C(=O)Nc2ccccc2)c2ccccc2-[n+]2ccsc21 (stereo unspecified)	-8	i	0.96	124	-1.6	-8	88
O=C(CCn1nnc2ccccc2c1=O)N[C@@H](Cc1ccccc1)C(=O)O	12	i	0.82	103	-0.4	43	114
Cc1cc(C)cc(C(=O)NC(CC(N)=O)c2ccc(NC3CCCCC3)c([N+](=O)[O-])c2)c1 (stereo unspecified)	·	i	0.96	113	·	·	·
c1ccc(C2=Nn3c(nnc3-c3ccncc3)SC2)cc1	4	·	·	98	-2.7	·	·
COc1ccccc1/C=N/NC(=O)c1csc(C)c1C	-6	i	0.92	100	-2.2	·	·
C=CCn1c(C)cc(C(=O)COC(=O)C2CC(=O)N(Cc3ccccc3)C2)c1C (stereo unspecified)	-7	i	0.93	109	-0.4	-7	149
COc1ccc(/C=C/C(=O)c2ccc[nH]2)c(OC)c1OC	-3	i	0.86	107	0.8	-500	32
COc1ccc(C2/C(=C(/O)c3ccc(C)cc3)C(=O)C(=O)N2CC2CCCO2)cc1OC (stereo unspecified)	-3	i	0.82	110	·	38	117
Cc1ccc2c(c1)NC(=O)C(CC(=O)NCCCN1CCCC1=O)O2 (stereo unspecified)	2	i	0.93	107	-0.4	·	·
CN(C)Cc1ccccc1Sc1ccc(O)cc1O	-11	i	1.1	102	0.3	10	82
Cc1nnc(SCC(=O)Nc2sc3c(c2C#N)CCCC3)[nH]c1=O	-6	i	0.78	56	0.3	45	112
Cc1ccc(C)c(C(C)NC(=O)CC#N)c1 (stereo unspecified)	0	i	0.92	93	·	·	·
S=C1NC2=C(CCC/C2=C\c2ccccc2)C(c2ccccc2)N1 (stereo unspecified)	-2	i	0.94	80	0.1	10	105
O=C(NNc1nc(=O)c2cccnc2s1)c1ccccc1O	-5	i	0.87	97	·	-30	129
CCCc1cc2c(=O)c(-c3nc4ccccc4s3)c(COCC(=O)O)oc2cc1O	-8	i	1.2	108	·	-33	128

The final 2 entries of the section above come first, to join the parts:
SMILES	PKD1 kinase inh	HSV augment	HSV augment primary fold	RGS16-Gao HTS	GALR2 ag	Insulin prom inh	Insulin prom inh cell count
O=C(NNc1nc(=O)c2cccnc2s1)c1ccccc1O	-5	i	0.87	97	·	-30	129
CCCc1cc2c(=O)c(-c3nc4ccccc4s3)c(COCC(=O)O)oc2cc1O	-8	i	1.2	108	·	-33	128
COc1cc(C2CC(=O)Oc3c(C(CCN4CCN(c5ccccc5)CC4)c4ccc(N(C)C)cc4)c(OC)cc(OC)c32)cc(OC)c1OC (stereo unspecified)	·	i	0.93	104	·	·	·
Cc1cc(=O)n(CC(C)O)c(O)c1C#N (stereo unspecified)	2	i	1	·	-4.2	58	136
CC(=O)N1CCc2cc(N=NC3=C(O)CCCC3=O)ccc21	-8	i	0.94	107	·	-7	71
O=C(COC(=O)c1ccc(Cl)nc1)c1ccc2c(c1)OCCO2	-7	i	0.93	101	·	·	·
Cn1c(CSc2ncccn2)nnc1SCC(=O)N1CCCCCC1	-2	i	1	100	·	15	74
O=C(NCc1ccccc1)c1ccc(Br)cc1Br	0	i	0.92	101	-0.7	·	·
CC1=CC(C)(C)N2C(=O)C3(SCC(=O)N3c3ccc(F)cc3)c3cc(C)cc1c32 (stereo unspecified)	0	i	0.95	97	0.0	-33	162
CN(CC(=O)Nc1ccccc1F)S(=O)(=O)c1ccc2c(c1)n(C)c(=O)c(=O)n2C	·	i	0.98	104	·	·	·
Cc1ccc(/C=C/C(=O)Nc2cc(S(=O)(=O)N3CCCCCC3)ccc2OCC(F)(F)F)o1	-9	i	0.83	110	-0.5	14	144
Clc1ccc(Cn2cc(/C=N/n3cnnc3)c3ccccc32)cc1	-4	i	0.75	102	-1.6	-9	41
CC(NC(=S)Nc1ccc(OC(F)F)cc1)c1ccc(F)cc1 (stereo unspecified)	-3	i	0.98	98	·	·	·
O=C1CN(CC(=O)NC(=O)NCc2ccccc2)CCN1	6	i	0.98	102	-0.2	·	·
C=CCN1C=C/C(=C\C=C(C#N)C#N)c2ccccc21	-4	i	1.3	163	0.8	28	105
CC1(C)CC(O)C(C(O)c2cccc([N+](=O)[O-])c2)C(C)(C)N1 (stereo unspecified)	0	i	1	99	-2.5	20	136
COc1cc2c(C#N)c(N3CCN(C)CC3)nc(N)c2c(N)n1	4	i	0.7	110	-3.1	-79	94
N#CCCN(C(=O)CO/N=C/c1cccc([N+](=O)[O-])c1)c1ccccc1	1	i	0.93	108	·	-31	93
CSc1nnc(CNC(=O)C23CC4CC(CC(C4)C2)C3)n1Cc1ccccc1	-1	i	1.1	97	1.1	·	·
CCCCOc1ccc(C(NC(=O)OCC)NC(=O)OCC)cc1	-4	i	1.2	150	-2.5	18	114
COc1cc2nc(CN3CCC(Cc4ccccc4)CC3)[nH]c(=O)c2cc1OC	2	i	0.98	93	·	0	96
Cc1ccc2[nH]c3c(N4CCN(Cc5ccc6c(c5)OCO6)CC4)ncnc3c2c1	15	·	·	121	-1.3	·	·
C/C=C\C=C/C(=O)Nc1cccc(C2=NOC3(C2)C[C@@H](C(N)=O)N(C(=O)COc2ccc(Cl)cc2)C3)c1 (stereo partly specified)	·	i	0.95	92	·	·	·
COc1cnn(-c2ccc(C)cc2)c(=O)c1Br	-4	i	0.96	101	·	-56	89
CCOC(=O)C1=C(N)n2c(s/c(=C\c3ccco3)c2=O)=C(C(=O)OCC)C1c1ccco1 (stereo unspecified)	-7	i	0.92	105	-1.1	-9	101
CN(C)C(=O)c1c(C(F)(F)F)nn(C)c1Cl	1	i	0.99	98	·	·	·
COc1ccc(-c2c[n+]3c4n2CCCCC4=C(c2ccc(Br)cc2)C3)cc1	-3	·	·	130	-1.6	·	·
CCN(CC)CCNC(=O)c1ccc(Cl)c(S(=O)(=O)N2CCCCCC2)c1	8	i	1.1	97	-0.3	-10	99
Cc1nn(CC(=O)NCCCN2CCOCC2)c(C)c1[N+](=O)[O-]	-1	i	1	104	-0.6	25	92
CC(C)[C@H](NC(N)=O)C(=O)Nc1cccc([N+](=O)[O-])c1	1	i	0.97	102	·	·	·
CCCCN(C)Cc1c(C(=O)N2CCc3ccccc3C2)nc2ccc(Cl)cn12	-5	i	1.1	95	·	·	·
CN(Cc1ccccc1)C(=S)Nc1ccc2nc3n(c(=O)c2c1)CCCCC3	-4	i	0.79	96	·	·	·
Cc1cc(/C=N/n2cnnc2)c(C)n1-c1ccc(OCc2ccc(F)cc2)cc1	6	i	0.82	103	-0.3	30	133
O=C(c1ccco1)N(Cc1ccc2c(c1)OCO2)Cc1cc2cc3c(cc2[nH]c1=O)OCO3	·	i	0.71	104	·	·	·
CC(CS(=O)(=O)c1ccccc1[N+](=O)[O-])N1CCOCC1 (stereo unspecified)	-7	i	0.87	99	·	11	126
CCOC(=O)Cn1nc(-c2ccc(Cl)cc2)ccc1=O	-11	i	0.64	99	-0.4	·	·
COCCCNC(=S)N(Cc1cccnc1)Cc1ccc(OC)c(OC)c1	-7	i	0.98	104	-2.1	27	83
Cc1ccc(CNC(=S)Nc2cc(C)ccc2OC(F)F)cc1	0	i	1	100	·	26	97
Cc1nc(N2CCOCC2)nc(Oc2ccccc2)c1[N+](=O)[O-]	·	i	1.1	100	·	·	·
COC(=O)c1c(N=CN(C)C)c(C#N)c2n1CCCC2	2	i	1.1	101	-2.9	-33	84
CCO/N=C(\N)c1[nH]ncc1Br	·	i	0.92	102	·	·	·
CC(=O)N1N=C(c2cccc([N+](=O)[O-])c2)OC1c1ccc(Br)cc1 (stereo unspecified)	·	i	0.92	100	·	·	·

A draw from above in order of molar mass, low to high:
SMILES	PKD1 kinase inh	HSV augment	HSV augment primary fold	RGS16-Gao HTS	GALR2 ag	Insulin prom inh	Insulin prom inh cell count
CN(C)C(=O)c1c(C(F)(F)F)nn(C)c1Cl	1	i	0.99	98	·	·	·
COc1cnn(-c2ccc(C)cc2)c(=O)c1Br	-4	i	0.96	101	·	-56	89
Cc1cc(/C=N/n2cnnc2)c(C)n1-c1ccc(OCc2ccc(F)cc2)cc1	6	i	0.82	103	-0.3	30	133
CCCCN(C)Cc1c(C(=O)N2CCc3ccccc3C2)nc2ccc(Cl)cn12	-5	i	1.1	95	·	·	·
CCN(CC)CCNC(=O)c1ccc(Cl)c(S(=O)(=O)N2CCCCCC2)c1	8	i	1.1	97	-0.3	-10	99
COc1ccc(-c2c[n+]3c4n2CCCCC4=C(c2ccc(Br)cc2)C3)cc1	-3	·	·	130	-1.6	·	·

Back to the main list with the 6 entries that preceded the break.
SMILES	PKD1 kinase inh	HSV augment	HSV augment primary fold	RGS16-Gao HTS	GALR2 ag	Insulin prom inh	Insulin prom inh cell count
COCCCNC(=S)N(Cc1cccnc1)Cc1ccc(OC)c(OC)c1	-7	i	0.98	104	-2.1	27	83
Cc1ccc(CNC(=S)Nc2cc(C)ccc2OC(F)F)cc1	0	i	1	100	·	26	97
Cc1nc(N2CCOCC2)nc(Oc2ccccc2)c1[N+](=O)[O-]	·	i	1.1	100	·	·	·
COC(=O)c1c(N=CN(C)C)c(C#N)c2n1CCCC2	2	i	1.1	101	-2.9	-33	84
CCO/N=C(\N)c1[nH]ncc1Br	·	i	0.92	102	·	·	·
CC(=O)N1N=C(c2cccc([N+](=O)[O-])c2)OC1c1ccc(Br)cc1 (stereo unspecified)	·	i	0.92	100	·	·	·
Cc1cccc(NC(=S)NCC2CCCO2)c1 (stereo unspecified)	0	i	0.91	101	0.4	-16	106
COc1ccc2c(c1)C(=O)N(c1ccccc1)C(=O)C2	-5	i	0.94	100	-2.4	17	92
COc1cc(OC)c(NC2c3ccccc3C(=O)N2c2cc(C)ccn2)cc1Cl (stereo unspecified)	-4	i	0.81	105	-1.2	·	·
Cn1c(=O)n(Cc2ccccc2)c2ccccc21	10	i	0.99	101	-0.1	·	·
Cc1ccc(NC2CCCCC2NS(=O)(=O)c2ccc(Cl)cc2)cc1 (stereo unspecified)	-7	i	0.84	101	1.7	·	·
COCCCNCCCOc1ccc(Cl)cc1C(C)(C)C	4	i	0.7	102	0.1	-45	112
CCOC(=O)/C(C(C)=O)=C1\OC(=O)c2ccccc21	-3	i	0.99	88	-3.5	36	102
COc1ccccc1N(CC(=O)Nc1cccnc1)S(C)(=O)=O	6	i	0.84	99	-0.5	-14	225
N#CC1=C(N)OC2=C(C(=O)CCC2)C1c1ccncc1 (stereo unspecified)	-8	i	0.91	103	0.5	·	·
CCc1nnc(NC(=O)C2Cc3ccccc3C(=O)O2)s1 (stereo unspecified)	-10	i	0.96	108	-0.8	·	·
CCCn1c(SCC(=O)Nc2cccc(NC(C)=O)c2)nnc1C(C)C	-2	i	0.89	101	-1.9	0	93
COc1cc(OC)c(-c2nn3c(-c4ccco4)nnc3s2)cc1OC	5	?	·	92	2.2	-44	75
CC1=NN(C(=O)c2cc(C)nn2C)C(O)(C(F)(F)F)C1 (stereo unspecified)	-3	i	0.96	105	-1.8	-33	143
Cc1nnc(-c2cnn(C)c2N)n1Cc1ccccc1	-1	i	1.1	107	-1.3	42	129
COc1ccc(Br)cc1C1N2CC3(C)CN1CC(C)(C2)C3=O (stereo unspecified)	-9	i	0.81	108	-1.5	·	·

Source: PubChem BioAssay
